FGF22 binding – binders of human FGF22 protein, primary screen, FGF22 synaptogenesis inhibitor project, biophysical, thermal shift, single point; 340,000 compounds, 1.5% hits; recombinant FGF22 thermal shift, SYPRO orange fluorescence; percent of sucrose octasulfate shift, DMSO zero; calls only at 9.99 µM; AID 651658, 2012;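 active means melting point raised past a set limit in the mean and every replicate; three in four hits are not shown here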
Target sequence (Q9HCT0 whole entry, looked up): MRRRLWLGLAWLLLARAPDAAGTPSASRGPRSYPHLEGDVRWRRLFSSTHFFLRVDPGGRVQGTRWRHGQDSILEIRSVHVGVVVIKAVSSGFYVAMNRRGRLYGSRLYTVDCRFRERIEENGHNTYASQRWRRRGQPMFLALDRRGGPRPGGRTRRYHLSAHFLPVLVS
rRNA inh HTS – reduced GFP signal of wild-type E. coli, primary screen, bacterial rRNA inhibitor project, GFP/RFP fluorescence, OD600, single point | GFP signal change (wild-type ribosome), % (concentration not given with the values) | E. coli WT GFP vs humanized-ribosome RFP mutants, 24 h; hits give low values; DMSO median 0, no signal -100 | 350,000 compounds, 1.6% hits;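 active means significant combined selectivity score with lowered wild-type GFP, culture density cut under 30%, mutant RFP and density less affected; inactive means any of these conditions unmet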; further: one replicate is shown; some compounds called inactive have numbers as strong as hits
UCH37 DUB inh – inhibitors of human UCH37 deubiquitinase, primary screen, biochemical, Ub-AMC cleavage, fluorescence; purified proteasome/UCH37; inhibition, % (test concentration not listed); 330,000 compounds, 0.33% hits; AID 588478, 2011;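 active means mean of two replicates above 20%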;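 further: 0% = compound-free wells with enzyme and 100% = wells lacking proteasome; stock transfer was 100 nL into about 20 µL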
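Assay system: Proteasome-bound UCH37. Buffer or medium: pH 7.4 Tris-HCl (50 mM) with ovalbumin, ATP-MgCl2, DTT. Incubation: 30 min preincubation with enzyme, 25 min cleavage at room temperature. Measured by: fluorescence, ex 355 nm, em 460 nm. Read-out basis: percent inhibition. Control set: wells without proteasome as full block, compound-free enzyme plus substrate as uninhibited.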
HNF4A DNA FP – change in binding of human HNF4A to DNA, primary screen, biochemical, fluorescence polarization, FITC-DNA. Hepatocyte nuclear factor 4-alpha (Homo sapiens), P41235. 1 h. activity change, % at 10 µM. 360,000 compounds, 0.3% hits. AID 1224865, 2016; in the data active means activity change above about 30%, passing the limit was not always enough;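 further: controls were the assay level and a saturating level of protein; the project sought stronger binding though the title names inhibitors; some compounds called inactive have numbers as strong as hits; positive values seem to mean higher polarization but the record does not say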
E coli growth – E. coli growth inhibition, primary screen, OD600; Escherichia coli growth, 23 h; hits give low values; OD600 absorbance (test concentration not listed); 330,000 compounds, 0.21% hits;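 active means OD600 absorbance below the run mean of sample wells minus 3.6 SD, in any replicate, cut at about 0.56 in these data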;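 further: stock transfer was 300 nL into about 60 µL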
Beta2AR agonist – beta2AR agonists driving receptor internalization, primary screen, cell-based, FAP fluorogen, flow cytometry; response, % (no concentration beside the values); Beta-2 adrenergic receptor (Homo sapiens), P07550; Am2.2-beta2AR cells; reference of the scale not given here; 340,000 compounds, 0.43% hits;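 active means response above a set limit, near 3 SD of response in nonfluorescent compounds, cut at about 42% in these data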;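 further: stock transfer was 100 nL into about 11 µL; a reference agonist was the positive control; negative values mostly stem from fluorescent compounds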
Target sequence (P07550 whole entry, looked up): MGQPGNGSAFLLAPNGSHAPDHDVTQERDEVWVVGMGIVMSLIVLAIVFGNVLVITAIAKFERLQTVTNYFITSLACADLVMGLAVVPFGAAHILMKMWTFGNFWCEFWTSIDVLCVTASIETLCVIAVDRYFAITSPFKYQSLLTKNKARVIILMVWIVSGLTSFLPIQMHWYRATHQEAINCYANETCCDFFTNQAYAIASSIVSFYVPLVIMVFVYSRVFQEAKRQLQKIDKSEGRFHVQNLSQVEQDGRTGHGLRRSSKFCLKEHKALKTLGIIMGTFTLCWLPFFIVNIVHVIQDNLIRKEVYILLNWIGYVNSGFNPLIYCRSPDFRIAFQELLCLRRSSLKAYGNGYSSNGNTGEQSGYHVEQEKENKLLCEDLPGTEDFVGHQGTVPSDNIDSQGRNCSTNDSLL
ALR H2O2 inh – inhibitors of human ALR sulfhydryl oxidase, primary screen, biochemical, H2O2 detection, HRP-luminol luminescence, single point | FAD-linked sulfhydryl oxidase ALR (Homo sapiens), P55789 | 290,000 compounds, 3.8% hits | purified ALR, DTT oxidation | AID 485317, 2010 | inhibition, % (no concentration beside the values);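 active means mean and each replicate at 75% or more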;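 further: stock transfer was 7.5 nL into about 7.5 µL; 0% = neutral wells and 100% = wells with inactivated enzyme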
Target sequence (P55789 whole entry, looked up): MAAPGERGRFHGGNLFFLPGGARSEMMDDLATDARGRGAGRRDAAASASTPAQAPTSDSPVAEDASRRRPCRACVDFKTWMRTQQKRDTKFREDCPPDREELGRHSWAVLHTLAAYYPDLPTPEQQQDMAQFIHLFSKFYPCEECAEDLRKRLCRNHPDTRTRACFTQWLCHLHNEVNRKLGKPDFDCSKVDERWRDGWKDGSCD
rRNA inh HTS OD600 – also measured in rRNA inh HTS; calls as there; OD600 change, %; measured here: OD600 growth;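 optical density of the mix in the first replicate; 0 = DMSO median and -100 = no signal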
rRNA inh HTS RFP – recorded beside rRNA inh HTS, whose call it bears; RFP signal change, %; measured here: RFP humanized mutant strains;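 first replicate; 0 = DMSO median and -100 = no signal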
An asterisk follows results filed as active; i = inactive; / = not tested or not shown; + = active, no number.

SMILES	FGF22 binding	rRNA inh HTS	rRNA inh HTS OD600	rRNA inh HTS RFP	UCH37 DUB inh	HNF4A DNA FP	E coli growth	Beta2AR agonist	ALR H2O2 inh
O=C(O)c1ccc(/C=N/NC(=O)c2ccc(CN3c4cccc5cccc(c45)S3(=O)=O)cc2)cc1	i	-18.3	-15.7	0.0	/	10.1	/	2.8	-30.0
Cc1ccccc1-n1c(-c2ccoc2C)n[nH]c1=S	i	-6.1	3.9	2.2	1.6	4.3	0.704	-3.3	/
O=C1NC(Cc2c[nH]c3ccccc23)C(=O)N1Cc1ccc(CN2C(=O)NC(Cc3c[nH]c4ccccc34)C2=O)cc1 (stereo not drawn)	i	-9.4	-12.9	2.7	/	-0.2	/	4.2	/
CCCCC[C@H]1CN(Cc2ccccc2)C(=O)[C@@H]1CC(=O)NCc1ccc(OC)cc1	i	-39.9	-73.9	-9.5	-3.5	3.3	/	-3.6	-17.8
CC(=O)CCn1cnc([N+](=O)[O-])n1	i	6.2	17.5	3.7	2.0	-1.3	0.727	8.5	/
O=C(Nc1nc2c(s1)CCCC2)C1COc2ccccc2O1 (stereo not drawn)	i	-16.1	-40.9	6.0	3.7	1.4	0.715	-1.1	-3.6
COc1cc(NC(=O)C/C(C)=N/NC(=O)C2CCCCC2)c(OC)cc1Cl	i	3.9	11.2	-0.2	/	2.0	/	4.6	8.3
O=C(O)c1cn(-c2ccccc2)c(=O)c2ccccc12	/	/	/	/	-3.0	-0.6	0.707	9.5	8.5
C[N+]1=C(/C=C/Nc2ccccc2Cl)C(C)(C)c2ccccc21	/	/	/	/	10.4	5.5	0.651	-14.2	/
Cc1ccc(NC(=O)c2ccc(CSc3nnc(C)s3)cc2)cc1	/	/	/	/	0.0	3.6	0.731	-2.1	-2.5
COc1ccc(-c2nc3ccccc3s2)cc1O	/	/	/	/	-5.7	0.6	0.655	6.1	20.5
COC(=O)c1ccccc1NC(=O)n1cc(C)cn1	/	/	/	/	-14.8	-0.5	0.69	-5.8	-15.9
COc1ccc(C(=O)NC2CCN(C(=S)Nc3cc(C)cc(C)c3)CC2)cc1	i	5.7	4.3	-0.9	1.4	-0.9	0.653	7.5	-0.7
CCC(Oc1ccccc1)C(=O)N1CCN(c2ccccn2)CC1 (stereo not drawn)	/	/	/	/	1.7	-3.2	0.772	-4.9	-13.6
CCc1nnc(NS(=O)(=O)c2ccc(NC(=O)/C=C/c3ccccc3Cl)cc2)s1	+	-55.9	-80.8	-27.0	3.7	-1.8	0.682	6.5	7.8
COCCNC(=O)c1ccc(-c2csc(C)n2)cc1	i	13.8	4.4	-0.4	1.1	0.7	0.719	-0.1	-5.2
CCOCC(=O)Nc1cc(-c2cn3cccnc3n2)ccc1C	i	6.9	2.1	-12.3	i	-1.1	0.705	-23.9	0.0
COc1ccc(-c2oc3ccccc3c(=O)c2OC(=O)c2ccc(C)cc2)cc1	/	/	/	/	-13.5	1.1	0.769	21.4	8.8
COc1ccccc1CNC(=O)c1ccc(CS(=O)Cc2cccc(Cl)c2)o1 (stereo not drawn)	i	-29.2	-26.1	-0.7	6.8	2.4	0.735	-1.4	-3.6
Cc1ccccc1C(=O)N=c1ccn(-c2nc3ccccc3nc2NS(=O)(=O)c2ccccc2)cc1	i	-47.1	-72.6	-15.8	6.1	-7.8	0.701	11.6	1.4
CC(C)(C)CN1CCC(Oc2cccc(C(=O)N3CCNC(=O)C3(C)C)c2)CC1	i	3.5	17.1	-3.2	3.0	0.8	0.67	0.8	-3.2
S=C(Nc1ccc(Br)cc1)N1CCCC1	/	/	/	/	0.3	-0.1	0.648	0.3	/
O=C(CN1CCN(c2ncccn2)CC1)N1CCCc2c1c(=O)oc1ccc(O)cc21	/	/	/	/	7.4	-2.6	0.786	-12.4	1.1
C=CCc1cccc2cc(C(=O)O)c(=O)oc12	/	/	/	/	3.4	2.9	0.686	6.1	-15.9
Cc1cc(C)nc(N2CCCC(C(=O)NNC(=O)c3ccncc3)C2)n1 (stereo not drawn)	/	8.2	3.0	-6.0	-0.9	1.9	0.69	-3.7	0.7

In the list so far, these have two or more sulfur atoms.
SMILES	FGF22 binding	rRNA inh HTS	rRNA inh HTS OD600	rRNA inh HTS RFP	UCH37 DUB inh	HNF4A DNA FP	E coli growth	Beta2AR agonist	ALR H2O2 inh
Cc1ccc(NC(=O)c2ccc(CSc3nnc(C)s3)cc2)cc1	/	/	/	/	0.0	3.6	0.731	-2.1	-2.5
CCc1nnc(NS(=O)(=O)c2ccc(NC(=O)/C=C/c3ccccc3Cl)cc2)s1	+	-55.9	-80.8	-27.0	3.7	-1.8	0.682	6.5	7.8

Other records follow:
SMILES	FGF22 binding	rRNA inh HTS	rRNA inh HTS OD600	rRNA inh HTS RFP	UCH37 DUB inh	HNF4A DNA FP	E coli growth	Beta2AR agonist	ALR H2O2 inh
CCCc1ccc(C(C)NC(=S)NC2CCCCC2)cc1 (stereo not drawn)	i	-42.3	-73.6	-9.9	3.7	1.1	0.695	6.7	-1.1
COc1ccc(/C=C/C(=O)OCC(=O)Nc2ccc3c(c2)OCO3)cc1	i	8.8	16.3	0.0	-3.1	11.0	0.718	-1.4	0.2
CCN1C(=O)c2cccc3c(S(=O)(=O)N4CCC(C)CC4)ccc1c23	i	-29.5	-63.1	-3.5	-157.1	-1.1	0.667	-10.3	-5.2
Cc1ccc(F)c(Cn2cnc3c(cnn3C(C)(C)C)c2=O)c1Cl	i	-28.5	-55.5	-3.8	0.9	-0.6	0.682	5.3	-0.5
COc1ccc(OC)c(/C=C/C(=O)OCC(=O)Nc2cccc(Oc3ccccc3)c2)c1	i	/	/	/	-116.8	-3.1	0.716	-3.5	2.0
CC(C)(O)[C@@H]1CC(=O)[C@]2(C)[C@H](CC[C@@]3(C)[C@H](c4ccoc4)OC(=O)[C@H]4O[C@]432)[C@@]1(C)/C=C\C(=O)O	i	-3.5	6.1	-2.1	1.0	2.1	0.806	-8.5	1.5
O=C(c1cn(-c2ccccc2)nc1-c1cccnc1)N1CCN(S(=O)(=O)c2ccc(Cl)cc2)CC1	i	5.3	13.8	-1.6	-1.0	1.4	0.714	-9.7	/
COc1ccc(C2CC(=O)Oc3cc(O)cc(O)c32)cc1 (stereo not drawn)	i	-26.0	-16.0	-12.7	2.1	0.1	0.738	3.9	37.8
CC(CC(=O)Nc1ccc(C(N)=O)cc1)c1ccccc1 (stereo not drawn)	i	1.8	2.3	-2.9	2.8	-0.5	0.718	8.2	-1.9
Fc1ccccc1CNCCC(Cc1ccccc1)c1ccc2c(c1)OCO2 (stereo not drawn)	i	-51.0*	-40.3*	-15.3*	3.0	-4.6	0.639	-1.9	-11.6
COc1ccccc1OCCCC(=O)Nc1ccc2c(c1)OCCO2	i	-2.9	-5.6	-2.9	5.7	-2.6	0.717	5.0	-20.7
O=C(O)c1ccc(OCCOc2ccccc2)cc1	i	4.1	-2.3	-3.2	/	6.7	/	-14.4	-7.4
COc1ccc(NC(=O)C(NC(C)=O)C(=O)NCc2ccccc2Cl)cc1 (stereo not drawn)	/	/	/	/	3.9	0.0	0.704	-4.8	-0.1
Cc1ccc(N2C(=O)C3CCCN3C2=S)cc1Cl (stereo not drawn)	i	-6.5	-5.1	-3.9	-0.5	0.8	0.674	-6.6	0.7
O=C1CCCC2=C1C(c1ccccc1)NC(=S)N2 (stereo not drawn)	i	3.3	2.9	-3.2	7.7	-3.1	0.613	-4.0	-8.7
COC(=O)c1cc(CNC(=O)c2ccccc2Cl)ccc1OC	/	/	/	/	2.3	-0.9	0.704	2.3	4.8
COCc1c(C(=O)OCc2nnc(-c3ccc([N+](=O)[O-])cc3)o2)oc2ccccc12	i	-21.0	-22.2	0.6	1.2	1.7	0.677	-1.1	-3.8
CCOc1ccc(C2CC(c3cccc(OC)c3)n3nc(N)nc3N2)cc1 (stereo not drawn)	i	1.5	-4.0	-2.3	-0.2	-0.3	0.712	3.3	-6.3
CC(=O)C(Sc1nc(N2CCOCC2)nc(N2CCOCC2)n1)C(=O)Nc1ccccc1 (stereo not drawn)	/	/	/	/	8.8	1.5	0.794	-11.0	21.6
CC(=O)NC1C(=O)N(CCN2CCOCC2)c2ccc(Cl)cc21 (stereo not drawn)	i	17.6	7.6	3.2	/	-0.1	/	-6.3	-19.0
CCC(=Nc1ccccc1OC)C1=C(O)CC(c2ccccc2)CC1=O (stereo not drawn)	i	20.4	9.3	4.2	1.7	0.8	0.709	31.2	-20.3
CC(C)(C)C(=O)NC(=S)Nc1ccccc1C(N)=O	/	/	/	/	-1.9	0.6	0.68	-5.8	12.6
C/C=C/COC(=O)c1[nH]c2c(c1C)C(=O)CC(c1ccco1)C2 (stereo not drawn)	i	-2.9	-8.2	1.8	0.4	-0.3	0.706	26.6	-5.5
O=C(NCc1ccco1)C1CCCN(S(=O)(=O)c2ccc(Cl)cc2)C1 (stereo not drawn)	/	/	/	/	-1.0	-1.1	0.65	-2.5	-1.1
CCN(C(=O)CCCC(=O)N(CC)c1ccccc1)c1ccccc1	/	/	/	/	1.9	-0.8	0.661	-0.2	-21.1

Results in rRNA inh HTS RFP and UCH37 DUB inh (two entries from above):
structure,rRNA inh HTS RFP,UCH37 DUB inh
CC(C)(O)[C@@H]1CC(=O)[C@]2(C)[C@H](CC[C@@]3(C)[C@H](c4ccoc4)OC(=O)[C@H]4O[C@]432)[C@@]1(C)/C=C\C(=O)O,-2.1,1.0
CCN(C(=O)CCCC(=O)N(CC)c1ccccc1)c1ccccc1,/,1.9

(further entries)
SMILES	FGF22 binding	rRNA inh HTS	rRNA inh HTS OD600	rRNA inh HTS RFP	UCH37 DUB inh	HNF4A DNA FP	E coli growth	Beta2AR agonist	ALR H2O2 inh
CCOC(=O)Cc1csc(SCC(=O)N2CCN(c3ccc(OC)cc3)CC2)n1	/	/	/	/	4.3	1.9	0.718	4.5	87.0*
Cc1nn(C)c(Oc2ccc(Cl)cc2)c1C(=O)O	/	/	/	/	1.3	1.9	0.677	0.4	4.0
O=C(NCc1ccc(F)cc1)c1ccc(Br)o1	/	-11.0	-16.0	-2.0	1.7	0.1	0.659	3.8	-2.3
CN(c1ccccc1)S(=O)(=O)c1cccc(C(=O)OCC(=O)Nc2ccc(C(N)=O)cc2)c1	i	/	/	/	1.9	0.3	0.671	-5.9	0.5
COc1ccc(C)cc1NC(=O)CSc1nnc(-c2ccc(OC)c(OC)c2)n1N	/	/	/	/	2.3	-3.9	0.662	-7.1	-13.2
Cc1noc(C)c1CN1C(=O)c2ccccc2C1=O	i	1.9	-2.7	-2.2	-1.3	5.5	0.73	-8.9	-27.8
CCOC(=O)c1cnc2c(c(C)nn2C)c1Oc1ccccc1F	i	-31.9*	-15.5*	-3.2*	5.3	2.2	0.646	0.7	-3.5
COc1cccc(OC)c1C(=O)Nn1c(-c2cccc(C)c2)nc2ccccc2c1=O	i	9.3	11.4	-2.3	-2.5	-1.9	0.711	0.5	-2.0
Cc1cccc(Nc2nc(NCCCN3CCOCC3)nc(N)c2[N+](=O)[O-])c1	i	8.4	3.0	-0.4	16.9	-6.0	0.611	-4.0	-3.2
COc1ccc(-c2nnc(SC(C)C(=O)Nc3nccs3)n2-c2ccccc2)cc1OC (stereo not drawn)	i	-14.6	-7.4	-0.2	5.5	3.4	0.642	-17.8	/

Screening results as filed in PubChem BioAssay.

This is a subset. The share of hits here may be higher or lower than overall.
